NOMO-1 viab = NOMO-1 AML cell viability reduction, primary screen, STK33 inhibitor project, CellTiter-Glo luminescence; NOMO-1 AML viability, 72 h; 7.5% of 37,000 active; inhibition, % (test concentration not listed);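 active = most replicates above 80%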;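 note: wells of about 30 µL received 25 nL stock; 0% = median of vehicle wells and 100% = reference inhibitor level; the first replicate is given; inactives centre near 10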
* hit, by the source's call.

SMILES | NOMO-1 viab
C[C@@H]1CN([C@@H](C)CO)C(=O)Cc2cc(NC(=O)C3CCCCC3)ccc2O[C@@H]1CN(C)C(=O)Nc1cccc2ccccc12 | 11
O=C(O)c1ccc(OCC(O)Cn2cnc3ccccc32)cc1 (stereo unspecified) | 9
COc1ccc(N2C(=O)N(c3ccc(F)cc3)C(=O)C2CC(=O)Nc2ccc(F)cc2)cc1 (stereo unspecified) | -1
COc1cccc(NC(=O)CSc2nnc(-c3cccc(OC)c3)n2-c2ccc(Cl)cc2)c1 | 18
C[C@@H]1CN([C@@H](C)CO)C(=O)Cc2cc(NC(=O)Nc3ccc(F)cc3)ccc2O[C@@H]1CN(C)C(=O)Nc1cccc2ccccc12 | -6
C[C@H]1CN([C@@H](C)CO)C(=O)Cc2cc(NS(=O)(=O)c3cn(C)cn3)ccc2O[C@@H]1CN(C)Cc1ccccc1 | 0
CC(C)NC(=O)Nc1cccc2c1O[C@H](CN(C)Cc1ccc3c(c1)OCO3)[C@@H](C)CN([C@@H](C)CO)C2=O | 18
Cc1cc(=O)[nH]c(SC(C)C(=O)Nc2cccc(Cl)c2)n1 (stereo unspecified) | -2
O=C(/C=C/CCc1ccc2c(c1)OCO2)N1CCCCC1 | 8
COc1cc(-c2cc(O)c(OC)c(OC)c2)cc(O)c1OC | 6
Cc1cc(OCC(=O)Nc2ccccc2CO)cc(C)c1Br | 9
COc1ccc2nc(SCC(=O)NC3CCCC3)[nH]c2c1 | 25
CNC[C@H]1OCCCC[C@@H](C)Oc2ccc(NC(=O)c3ccncc3)cc2C(=O)N([C@H](C)CO)C[C@@H]1C | 10
C=C(C(=O)O[C@H]1C/C=C(/C)C[C@H](O)[C@H]2[C@H](C)C(=O)O[C@@H]2/C=C\1C)[C@@H]1CCC(=C)[C@@H]2C[C@H](O[C@@H]3O[C@H](CO)[C@@H](O)[C@H](O)[C@H]3O)C(=C)[C@@H]2C1 | 118*
C[C@@H]1CN([C@@H](C)CO)C(=O)c2cc(NS(=O)(=O)c3cccs3)ccc2O[C@H]1CN(C)S(=O)(=O)c1cccs1 | -14
C[C@H]1CN([C@@H](C)CO)C(=O)c2cccc(N(C)C)c2O[C@@H]1CN(C)S(C)(=O)=O | -17
C=C1CCC(C)C(C)(CCC2=CC(OC)OC2=O)C/C=C\C=C\1C(=O)O (stereo unspecified) | 10
Cc1noc(C)c1S(=O)(=O)Nc1cccc2c1O[C@H](CN(C)Cc1ccc(C(F)(F)F)cc1)[C@H](C)CN([C@@H](C)CO)C2=O | 12
Cc1ccc(-c2nc3ccccc3o2)cc1NC(=O)COc1ccccc1C | -6
C[C@H]1CN([C@@H](C)CO)C(=O)c2cccc(NC(=O)Nc3cccc4ccccc34)c2O[C@@H]1CN(C)S(C)(=O)=O | 20
C[C@@H]1CN([C@H](C)CO)C(=O)c2cc(NS(C)(=O)=O)ccc2O[C@H]1CN(C)C(=O)Nc1ccc2c(c1)OCO2 | 15
Clc1ccc(Sc2ccc(-c3ccccn3)s2)cc1 | 13
O=C(CSc1nc2sc3c(c2c(=O)[nH]1)CCC3)Nc1ccccc1C(F)(F)F | 26
C[C@@H]1CCCCO[C@@H](CN(C)C(=O)Nc2ccc(F)cc2)[C@@H](C)CN([C@H](C)CO)C(=O)c2cc(NC(=O)Cc3ccccc3)ccc2O1 | 27
Cc1ccc(S(=O)(=O)Nc2ccc3c(c2)C(=O)N([C@@H](C)CO)C[C@@H](C)[C@@H](CN(C)S(C)(=O)=O)O3)cc1 | 25

Some values from above.
C[C@H]1CN([C@@H](C)CO)C(=O)Cc2cc(NS(=O)(=O)c3cn(C)cn3)ccc2O[C@@H]1CN(C)Cc1ccccc1 | NOMO-1 viab: 0
O=C(O)c1ccc(OCC(O)Cn2cnc3ccccc32)cc1 (stereo unspecified) | NOMO-1 viab: 9
C[C@@H]1CCCCO[C@@H](CN(C)C(=O)Nc2ccc(F)cc2)[C@@H](C)CN([C@H](C)CO)C(=O)c2cc(NC(=O)Cc3ccccc3)ccc2O1 | NOMO-1 viab: 27
C[C@@H]1CN([C@H](C)CO)C(=O)c2cc(NS(C)(=O)=O)ccc2O[C@H]1CN(C)C(=O)Nc1ccc2c(c1)OCO2 | NOMO-1 viab: 15

Back to the main list; the 4 compounds before the break are reprinted first.
SMILES | NOMO-1 viab
Clc1ccc(Sc2ccc(-c3ccccn3)s2)cc1 | 13
O=C(CSc1nc2sc3c(c2c(=O)[nH]1)CCC3)Nc1ccccc1C(F)(F)F | 26
C[C@@H]1CCCCO[C@@H](CN(C)C(=O)Nc2ccc(F)cc2)[C@@H](C)CN([C@H](C)CO)C(=O)c2cc(NC(=O)Cc3ccccc3)ccc2O1 | 27
Cc1ccc(S(=O)(=O)Nc2ccc3c(c2)C(=O)N([C@@H](C)CO)C[C@@H](C)[C@@H](CN(C)S(C)(=O)=O)O3)cc1 | 25
C[C@H]1CN([C@@H](C)CO)C(=O)c2cccc(NS(C)(=O)=O)c2O[C@@H]1CN(C)Cc1ccc(-c2ccccc2)cc1 | 13
Cc1noc(C)c1NC(=O)N(C)C[C@H]1Oc2ccc(NC(=O)Nc3ccc4c(c3)OCO4)cc2C(=O)N([C@@H](C)CO)C[C@H]1C | 19
C[C@@H]1CN([C@H](C)CO)C(=O)c2cccc(NC(=O)CCCCCC(=O)Nc3ccccc3N)c2O[C@@H]1CN(C)C | 29
C[C@@H]1CN([C@@H](C)CO)C(=O)c2cccc(NC(=O)CCCCCC(=O)Nc3ccccc3N)c2O[C@H]1CN(C)C(=O)Nc1ccc2c(c1)OCO2 | 19
COc1ccc(-c2nnc(SCc3ccc(OC)c([N+](=O)[O-])c3)n2-c2ccccc2)cc1 | 18
C[C@@H]1CN([C@H](C)CO)C(=O)c2cc(NS(=O)(=O)c3cn(C)cn3)ccc2O[C@H]1CN(C)S(=O)(=O)c1cccs1 | -6
CCOC(=O)C1=C(C)NC(=S)NC1c1cccc(O)c1 (stereo unspecified) | -6
CCc1nc(SCC(=O)N2CCCc3ccccc32)n[nH]1 | 13
C[C@@H]1CCCCO[C@@H](CN(C)C(=O)Nc2ccccc2)[C@@H](C)CN([C@H](C)CO)C(=O)c2cc(NC(=O)CCCN(C)C)ccc2O1 | -9
CCOC(=O)c1ccc(NC(=O)CSc2nc3sc4c(c3c(=O)[nH]2)CCCC4)cc1 | -3
C[C@H](CO)N1C[C@H](C)[C@@H](CN(C)C(=O)Nc2cccc3ccccc23)Oc2c(NC(=O)Nc3cccc4ccccc34)cccc2C1=O | 32
COc1cccc(-c2cc(NCc3ccc4c(c3)OCO4)nc(N)n2)c1 | 95*
C[C@H]1CN([C@@H](C)CO)C(=O)c2cc(NS(=O)(=O)c3ccc(F)cc3)ccc2O[C@@H]1CN(C)Cc1ccc2c(c1)OCO2 | 16
C[C@@H]1CN([C@H](C)CO)C(=O)c2cc(NC(=O)Nc3cccc4ccccc34)ccc2O[C@@H]1CN(C)C(=O)Nc1ccccc1 | 27
C[C@H](CO)N1C[C@H](C)[C@H](CN(C)S(=O)(=O)c2cn(C)cn2)Oc2c(NS(=O)(=O)c3cccs3)cccc2C1=O | -1
Cc1cc(C)c2c(=O)[nH]c(SCC(=O)c3ccccc3)nc2n1 | -10
Cc1noc(C)c1NC(=O)Nc1cccc2c1O[C@H](CN(C)C(=O)Nc1ccccc1)[C@H](C)CN([C@@H](C)CO)C2=O | 1
CC(C)(C)CC[n+]1ccc(/C=N/O)cc1 | 11
CC(NS(=O)(=O)c1ccc(Br)cc1)C(=O)Nc1ccc(Cl)cc1Cl (stereo unspecified) | 8
C[C@H]1CN([C@@H](C)CO)C(=O)c2cccc(NC(=O)NC3CCCCC3)c2O[C@H]1CN(C)Cc1ccncc1 | -14
Cc1noc(C)c1NC(=O)N(C)C[C@H]1Oc2ccc(NS(=O)(=O)c3ccc(F)cc3)cc2CC(=O)N([C@@H](C)CO)C[C@@H]1C | 10
Cc1ccc(-n2c(C)nnc2SCC(=O)Nc2cc(C(F)(F)F)ccc2Cl)cc1 | 35
C[C@@H]1CN([C@H](C)CO)C(=O)c2cccc(NC(=O)Nc3ccc(F)cc3)c2O[C@H]1CN(C)Cc1ccc2c(c1)OCO2 | 97*
CCCCn1c(Cc2ccccc2)nc2ccccc21 | 21
O=C(O)c1ccccc1Nc1nc(N2CCOCC2)nc(N2CCOCC2)n1 | 11

Molecules listed so far that have a COOH group (3):
SMILES | NOMO-1 viab
O=C(O)c1ccc(OCC(O)Cn2cnc3ccccc32)cc1 (stereo unspecified) | 9
C=C1CCC(C)C(C)(CCC2=CC(OC)OC2=O)C/C=C\C=C\1C(=O)O (stereo unspecified) | 10
O=C(O)c1ccccc1Nc1nc(N2CCOCC2)nc(N2CCOCC2)n1 | 11

Among those listed so far, these contain bromine.
SMILES | NOMO-1 viab
Cc1cc(OCC(=O)Nc2ccccc2CO)cc(C)c1Br | 9
CC(NS(=O)(=O)c1ccc(Br)cc1)C(=O)Nc1ccc(Cl)cc1Cl (stereo unspecified) | 8

More records:
SMILES | NOMO-1 viab
COc1cccc(OCC(=O)Nc2ccccc2C(=O)Nc2ccc(C(=O)O)cc2)c1 | 9
C[C@@H]1CN([C@@H](C)CO)C(=O)Cc2cc(NS(=O)(=O)c3ccc(F)cc3)ccc2O[C@@H]1CN(C)Cc1ccc(C(=O)Nc2ccccc2N)cc1 | 112*
Cc1ccc(S(=O)(=O)Nc2cccc3c2O[C@@H](CN(C)Cc2ccc(Cl)c(Cl)c2)[C@H](C)CN([C@@H](C)CO)C3=O)cc1 | 51
Cc1cc(=O)[nH]c(SCC(=O)N2CCN(c3ccccc3)CC2)n1 | 7
C[C@H]1CN([C@@H](C)CO)C(=O)Cc2cc(NC(=O)CCN3CCOCC3)ccc2O[C@@H]1CN(C)C(=O)Nc1ccc(F)cc1 | -5
COc1ccc2c(C)nc(Nc3nc(C)cc(=O)[nH]3)nc2c1 | 117*
CC1OC(OC2C(CO)OC(OC(=O)[C@]34CCC(C)(C)CC3C3=CCC5[C@@]6(C)CC[C@H](OC7OC(C)C(OC8OCC(O)(COC9OCC(O)C(OC%10OCC(OC%11OCC(O)(CO)C%11O)C(O)C%10O)C9O)C8O)C(O)C7O)C(C)(C)C6CC[C@@]5(C)[C@]3(C)CC4)C(O)C2O)C(O)C(O)C1O (stereo partly specified) | 100*
COc1ccc(NC(=O)Nc2ccc3c(c2)CC(=O)N([C@@H](C)CO)C[C@H](C)[C@@H](CN(C)CC2CC2)O3)cc1 | 14
Cc1ccc(S(=O)(=O)N(C(=O)c2ccncc2)c2ccc(OC(=O)c3ccncc3)cc2)c(C)c1 | 53

Source: PubChem (Broad Institute)

This is a subset. The share of hits here may be higher or lower than overall.
